Screens (PubChem)
PrP 5UTR inh: suppresses PrP 5' UTR mRNA reporter expression. cell-based PrP 5' UTR mRNA reporter, plate reader. inhibition, % (concentration not given with the values). 340,000 compounds, 0.35% hits. AID 488862;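 active = every replicate at 50% or more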;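 also: 0 = median of the neutral control wells; tested in H4 reporter cells; numbers are from one replicate; inactives centre near -14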
Autofluor counter: flagged as autofluorescent in microsphere protease counterscreen; fluorescence intensity (concentration not given with the values); AID 624483; compound autofluorescence counterscreen, microsphere flow cytometry; hits give high values; 360,000 compounds, 3.1% hits;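 active = at least 3 SD above the mean of all compounds, about 16000 in these data; inconclusive = too few beads counted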;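 also: 100 nL of 1 mM stock went into each well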
ugtP null kill: growth inhibition of S. aureus ugtP deletion strain; S. aureus RN4220 ugtP deletion, OD600 growth, 16 h; some inactives read as strong as hits; growth inhibition, % (no concentration beside the values); 330,000 compounds, 0.54% hits;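 active = z-score under -3 and OD600 up to 0.15 on both plates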;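 also: plate controls were untreated wells for no effect and antibiotic for full effect; wells of about 80 µL received 100 nL stock; the first replicate is given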
Sa RN4220 lethal: kills Staphylococcus aureus RN4220; inhibition, % (no concentration beside the values); S. aureus RN4220 growth, OD600, 16 h; AID 1259311; 330,000 compounds, 0.33% hits;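 active = z-score of -3 or lower and OD600 up to 0.18 on both plates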;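 also: plate controls were untreated cells for no effect and reference antibiotic for full effect; stock transfer was 100 nL into about 80 µL; one replicate is shown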
BJeLR viability: kills HRASV12-expressing BJeLR cells | BJeLR (HRASV12) viability, CellTiter-Glo ATP luminescence, 48 h; reference of the scale not given here | inhibition, % (no concentration beside the values) | 300,000 compounds, 0.17% hits | AID 1554;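 active = replicate mean above 50%; inconclusive = above 50% but judged a plate artefact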;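 also: 50 nL library stock added to about 25 µL; numbers are from one replicate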
Mtb hypoxia rep: Mtb hypoxia fluorescent reporter inhibition. M. tuberculosis hypoxia-regulated fluorescent reporter, fluorescence. fluorescence inhibition, % (concentration not given with the values). 300,000 compounds, 0.1% hits. AID 1159583;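 active = 35 to 45% if threefold the growth effect, above 45% if 1.5-fold the growth effect; inactive = the rest, general growth blockers included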;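 also: wells of about 50 µL received 100 nL stock; 0% = vehicle wells and 100% = reference inhibitor wells; whole bacteria with a GFP reporter of the hypoxia response; strong numbers were not always called active; many hits fall short of the cut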
Mtb hypoxia rep growth: also measured in Mtb hypoxia rep; calls as there; growth inhibition, %; measured here: M. tuberculosis growth (absorbance);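 0% = vehicle and 100% = reference antibiotic; read after six days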
Numbers without * were called inactive; u = inconclusive; x = no result given.

mol	PrP 5UTR inh	Autofluor counter	ugtP null kill	Sa RN4220 lethal	BJeLR viability	Mtb hypoxia rep	Mtb hypoxia rep growth
Cn1c(CCNC(=O)c2ccc(F)cc2)nc2ccccc21	-22	4102	-1	0.1	5	7	21
COC(=O)c1ccc(CSc2nnnn2C)o1	-8	3453	3	2.0	-10	18	5
CSC[C@@H]1NC(=S)N(c2ccc(C)cc2)C1=O	-3	1898	8	5.3	-12	8	5
COc1ccc2c(c1)Sc1ccccc1N2	-43	3718	4	6.0	11	9	2
O=C(CCc1ccccc1)N1CCCC(Nc2ccc(F)cc2)C1 (configuration not stated)	-19	5612	-2	1.9	8	2	-5
COc1ccc(NC(=O)CCC(=O)Nc2nnc(CC(C)C)s2)cc1Cl	-2	6020	-1	0.2	-12	12	6
Fc1ccc(Nc2nc(-c3ccncc3)nc3ccccc23)cc1	7	2180	-6	-3.0	2	-2	2
Cc1ccc(NC(=S)NCCc2cnc[nH]2)cc1C	-19	4618	5	1.8	x	11	2
CC1CCCCN1C(=O)CN1C(=O)CSc2ccc(S(=O)(=O)N3CCOCC3)cc21 (configuration not stated)	-18	3994	3	0.9	-6	9	-5
Cc1cc(C)cc(Nc2ccc3nonc3c2[N+](=O)[O-])c1	-9	6397	8	4.2	-3	16	4
CCOc1cc(S(=O)(=O)NCc2ccc3c(c2)OCO3)c(C)cc1C	-8	4294	-3	7.8	4	x	x
Cc1cc(-c2nnc3n2N=C(c2ccc(F)cc2)CS3)n[nH]1	-10	4349	18	5.3	0	8	-2
CC(=O)c1cccc(NC(=O)C(C)OC(=O)c2ccc(Br)o2)c1 (configuration not stated)	-1	3711	1	4.8	x	3	0
Cc1ccc2cc(CCNC(=O)c3ccc(S(=O)(=O)N4CCOCC4)cc3)c(=O)[nH]c2c1	-3	5848	1	-1.3	2	2	9
COP(=O)(OC)C(NC(C)=O)C(Cl)(Cl)Cl (configuration not stated)	-23	3274	1	5.1	-7	10	10
O=C(OCC(=O)N1CCCC1)c1cnc(Cl)c(Cl)c1	-21	3579	1	1.2	x	4	5
CCOC(=O)C1CCN(C(=O)c2cccc(S(=O)(=O)N3c4ccccc4CC3C)c2)CC1 (configuration not stated)	-1	3717	-2	7.8	x	-1	9
O=C(c1ccco1)N1CCN(c2ncnc3c2cnn3-c2ccccc2)CC1	-40	u	-9	-6.6	9	2	8
Cc1nc2ccc(S(=O)(=O)NCC(=O)NCc3ccc(Cl)cc3)cc2s1	-11	3811	7	-2.5	-23	-1	-8
Cc1ccccc1OCC(=O)NCCNC(=O)c1ccccn1	-13	5325	2	0.0	3	15	13
Nc1ccc([N+](=O)[O-])cc1	4	4623	15	6.2	x	6	1
Cc1onc(-c2ccccc2Cl)c1C(=O)N1C=CC(C(F)(F)F)=NCC1	-14	2105	1	1.8	-7	x	x
O=C(CNc1ccc2ccccc2c1)N/N=C/c1ccc(OC(=O)/C=C/c2ccco2)cc1	-5	2166	x	x	1	x	x
NC(=O)/C(=N\O)c1ccccc1	-17	5772	x	x	8	x	x
O=C1OCC/C1=C\OCCCO/C=C1\CCOC1=O	3	4152	x	x	-4	x	x
COC(=O)c1cc(Br)ccc1N(Cc1cc(OC)cc(OC)c1)S(C)(=O)=O	-6	4108	2	11	x	-6	5
Cc1cc(C)n(-c2ncccc2[N+](=O)[O-])n1	-23	5022	9	2.5	-10	18	-2
COc1ccc(NC(=S)Nc2ccccn2)cc1	-48	3275	7	2.7	-5	15	13
COC(=O)CN(c1ccccc1)S(=O)(=O)c1ccccc1	-12	6968	5	5.0	-10	16	10
COCCNCCOc1ccccc1-c1ccccc1	-8	4819	7	2.6	-14	17	7
Nc1ncnc(NC2CCS(=O)(=O)C2)c1[N+](=O)[O-] (configuration not stated)	-5	4676	-1	-0.3	-7	7	-4
COC(=O)c1nnn(-c2ccc(F)c(Cl)c2)c1C(=O)OC	-5	2451	4	4.4	-9	13	5
CC(NC(=O)CC1Sc2ccccc2NC1=O)c1ccccc1 (configuration not stated)	-26	4810	1	2.4	0	9	5
CC(Sc1ncc(C(F)(F)F)cc1Cl)C(=O)NCC1CCCO1 (configuration not stated)	-10	3264	3	4.4	x	8	16
Cc1cc(C(=O)COc2ccc3ccc(=O)oc3c2)c(C)n1C	-20	3427	-4	-0.3	-6	-1	0
O=C(Nc1ccc2c(c1)CN(Cc1ccco1)CC2)C1CCCO1 (configuration not stated)	-20	5860	2	0.2	4	0	1
CN1C(=O)CSC1=Nc1cccc(Cl)c1	-8	3340	2	4.2	1	16	4
CCc1ncc(C(=O)c2ccc(OC)cc2)n1C	-2	7763	8	11	13	10	2
CC(=O)c1cccc(OCC(O)CN2CCN(S(=O)(=O)c3c(F)cccc3F)CC2)c1 (configuration not stated)	-1	3910	1	1.0	5	13	10
CC(=O)c1ccc(N2CCN(CC(=O)NC(=O)NCc3ccccc3)CC2)cc1	-1	8872	0	1.4	x	0	-2
CC(=NNS(=O)(=O)c1ccc(C)cc1C)c1ccc2c(c1)OCO2	x	x	9	-2.2	x	10	-1
CC(/C=C/c1ccccc1)=N/NC(=O)C(O)c1ccccc1 (configuration not stated)	-3	2068	x	x	6	x	x
CCN(C(=O)Cn1cc(C(=O)C(=O)N2CCOCC2)c2ccccc21)c1ccccc1	0	4793	2	1.5	-3	7	2
CN(C(=O)c1cccc(NC(=O)Cc2cccc(NC(=O)C3CCCN(C(=O)c4ccccc4)C3)c2)c1)C1CC1 (configuration not stated)	-22	3632	0	1.8	x	-14	7
O=C(NCC(=O)N1CCN(c2ccccc2F)CC1)c1cccs1	-14	5122	3	-1.5	1	5	7
CC(C)(Cc1nc2ccccc2[nH]1)C(=O)O	-27	8282	5	3.2	-10	11	5
NC(Cc1ccc([N+](=O)[O-])cc1)=NOC(=O)c1ccco1	x	x	9	1.3	x	4	15
CC(Cc1cccs1)NC(=O)NC1CCCCC1 (configuration not stated)	-75	8824	-3	1.4	-9	9	18
O=C(Nc1ccccc1C(=O)N1CCCCC1)c1ccccc1C(F)(F)F	-9	5454	-4	-2.5	-4	8	8
CCN(C(=O)COc1ncnc2scc(-c3ccc(F)cc3)c12)C1CCS(=O)(=O)C1 (configuration not stated)	-13	4201	5	3.8	4	13	9
CN(CC(=O)N1CCc2ccccc21)S(=O)(=O)c1ccc(Br)s1	-10	4599	-6	-1.7	1	x	x
Cc1ccc(CSCC(=O)NN=Cc2ccc(OCC(=O)Nc3ccc(C)cc3)cc2)cc1	x	x	-16	-14	x	5	2
O=c1[nH]c2ccsc2c(=O)n1-c1ccc(F)c(Cl)c1	-5	17764*	1	2.4	10	1	9
CCOC(=O)N1CCN(C(=O)c2cn(CC)c3ccc(S(=O)(=O)N4CC(C)CC(C)C4)cc3c2=O)CC1 (configuration not stated)	-24	4274	3	15	-7	-1	8
CC1=C(C(=O)Nc2cc(C(=O)N3CCC(C)CC3)ccc2C)SCCO1	-20	5899	6	6.5	-14	1	-3
CC(=O)Nc1ccc(NC(=O)C(C)OC(=O)CCc2c[nH]c3ccccc23)cc1 (configuration not stated)	-3	5922	2	1.1	-1	9	11
CCCn1nnnc1SCC(=O)NCc1ccc(OC)cc1	-1	3817	2	-3.8	6	x	x
O=C(NN=Cc1ccc([N+](=O)[O-])cc1)c1ccc(COc2ccccc2-c2ccccc2)cc1	x	x	-13	8.0	x	-6	-8
Cc1ccccc1CC1(CO)CCCN(C(=O)CCN2CCCO2)C1 (configuration not stated)	-14	5405	6	2.5	8	8	8
Cc1ccccc1CC(=O)NC1CCCCCC1	-22	3685	-2	-0.7	-3	13	11

New compounds follow.
mol	PrP 5UTR inh	Autofluor counter	ugtP null kill	Sa RN4220 lethal	BJeLR viability	Mtb hypoxia rep	Mtb hypoxia rep growth
Cc1nnc(SCC(=O)N2CCN(c3ccccc3)CC2)n(N)c1=O	-21	5206	2	3.6	-3	7	0
CCc1ccc(NC(=O)N(C2CCC(C)CC2)C2CCN(C(C)=O)CC2)cc1 (configuration not stated)	-18	7672	0	8.2	1	-2	-7
CC(C)C(=O)Nc1cccc(-c2cnc3ccccc3n2)c1	-54	20196*	3	5.8	-1	11	4
CN(Cc1ccccc1)S(=O)(=O)c1cccc(C(=O)O)c1	-30	2314	10	5.0	6	11	4
C=CCn1c(SCc2csc(C)n2)nc2sc3c(c2c1=O)CCCC3	-18	4287	x	x	-3	x	x
CCOC(=O)N1CCN(C(=O)COc2ccccc2Cl)CC1	0	10167	3	1.4	-5	10	15
CNC(=S)N/N=C(\C)c1ccc(Cl)s1	-26	1991	x	x	-6	x	x
CCOc1cccc(C2C(C#N)=C(N)Oc3cc(C)oc(=O)c32)c1OCC (configuration not stated)	-11	3240	x	x	-2	x	x
CCOC(=O)/C(C#N)=C/c1ccc(SC)cc1	-15	2186	x	x	-15	x	x
O=C(COC(=O)c1cc2c(s1)CCCC2)Nc1ccc(Cl)cn1	-15	2109	4	9.3	1	13	-1

Part of the list above in order of length of the SMILES, ascending:
mol	PrP 5UTR inh	Autofluor counter	ugtP null kill	Sa RN4220 lethal	BJeLR viability	Mtb hypoxia rep	Mtb hypoxia rep growth
Cc1ccccc1CC(=O)NC1CCCCCC1	-22	3685	-2	-0.7	-3	13	11
CCOC(=O)/C(C#N)=C/c1ccc(SC)cc1	-15	2186	x	x	-15	x	x
CCOC(=O)N1CCN(C(=O)COc2ccccc2Cl)CC1	0	10167	3	1.4	-5	10	15
CC(C)C(=O)Nc1cccc(-c2cnc3ccccc3n2)c1	-54	20196*	3	5.8	-1	11	4
Cc1ccccc1CC1(CO)CCCN(C(=O)CCN2CCCO2)C1 (configuration not stated)	-14	5405	6	2.5	8	8	8
O=C(COC(=O)c1cc2c(s1)CCCC2)Nc1ccc(Cl)cn1	-15	2109	4	9.3	1	13	-1
C=CCn1c(SCc2csc(C)n2)nc2sc3c(c2c1=O)CCCC3	-18	4287	x	x	-3	x	x
CCOc1cccc(C2C(C#N)=C(N)Oc3cc(C)oc(=O)c32)c1OCC (configuration not stated)	-11	3240	x	x	-2	x	x
CCc1ccc(NC(=O)N(C2CCC(C)CC2)C2CCN(C(C)=O)CC2)cc1 (configuration not stated)	-18	7672	0	8.2	1	-2	-7
O=C(NN=Cc1ccc([N+](=O)[O-])cc1)c1ccc(COc2ccccc2-c2ccccc2)cc1	x	x	-13	8.0	x	-6	-8
